gsp ag – agonists of gsp mutant (McCune-Albright syndrome) | gsp mutant cells, cAMP HTRF, 30 min; control for the full effect not named in the record | Potency, µM (highest dose often 76.9 µM), without a hit: top-dose activation (cAMP increase), actives largely listed as activators | 340,000 tested, 0.13% active; active = well fitted activation curve with a large enough effect; inconclusive = small, poorly fitted or top-dose-only effect, or another doubt; inactive = no such curve, though single readings can be large or run the other way; cell line not stated here;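 note: phosphodiesterase inhibitor Ro 20-1724 added with compounds to block cAMP breakdown; potency is the fitted concentration of half-maximal effect; nearly all actives have a fitted effect of over 60% in size; about a fifth of the inactives were tested at one dose only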
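Cells in DMEM/10% FBS with G418 were pretreated with compounds in DMSO plus […] (300 uM stock) for 30 min at 37C. cAMP was measured by HTRF (cAMP-d2 plus anti-cAMP antibody-K) after 30 min at room temperature.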
ClpP mod – qHTS Assay for Activators of ClpP; ATP-dependent Clp protease proteolytic subunit (Bacillus subtilis (strain 168)), P80244; purified B. subtilis ClpP, FRET peptide cleavage, 20 min; Potency, µM (series often up to 57.5 µM), for inactives: at the top dose activity change, negative = active; 340,000 tested, 1.9% active; AID 651965, 2013; active = well fitted falling curve with a large enough effect; inconclusive = small, poorly fitted or top-dose-only effect; inactive = no such curve, though single readings can be large or run the other way; note: potency is the fitted concentration of half-maximal effect; the source files actives as falling curves though it sought activators and does not explain the sign; nearly all actives have a fitted effect of over 65% in size; many hits overshoot -100%
Target sequence (P80244 whole entry, looked up): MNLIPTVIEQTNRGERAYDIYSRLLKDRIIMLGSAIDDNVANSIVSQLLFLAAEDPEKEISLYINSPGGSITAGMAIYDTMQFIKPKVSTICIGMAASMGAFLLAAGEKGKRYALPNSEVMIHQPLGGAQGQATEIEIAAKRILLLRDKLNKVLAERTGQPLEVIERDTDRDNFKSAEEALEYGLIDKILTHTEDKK
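Buffer: 100 mM Tris/HCl pH8, 100 mM KCl, 0.05% low protease BSA, 2.5% glycerol, 0.01% Tween-20. ClpP 10 microg/mL final; 20 min RT; delta FRET normalized to ADEP and DMSO controls.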
gsp antag – gsp mutant antagonism; AID 624288; gsp-mutant cells, cAMP HTRF, 30 min; control for the full effect not named in the record; Potency, µM (doses to about 76.9 µM), inactives show at the top dose activity change, negative = inhibition, usual class: inhibitors; 340,000 tested, 0.4% active; active = falling curve of any shape with a large fitted effect; inconclusive = falling curve, mostly with a smaller effect; inactive = flat or rising curve; cell line not stated here;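 note: intracellular cAMP measured with PDE inhibitor Ro 20-1724 present during compound exposure; potency is the fitted concentration of half-maximal effect; % is set by controls: 0 for no effect and ±100 for the full control effect; nearly all actives have a fitted effect of over 65% in size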
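Cells, 2000/well, grown 16–24 h in DMEM 10% FBS with 0.5 mg/ml G418, then compounds plus […] (300 uM addition stock), 30 min at 37C. cAMP read by HTRF (cAMP-d2 and anti-cAMP antibody-K in lysis buffer) after 30 min RT.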
Sfp inh – Sfp phosphopantetheinyl transferase inhibition | Potency, µM, for inactives: max response, negative = inhibition, actives largely listed as inhibitors | 310,000 tested, 3.5% active | Biochemical Sfp PPTase activity, qHTS; active = well fitted inhibition curve with a large enough effect; inconclusive = small, poorly fitted or top-dose-only effect, or another doubt; inactive = no such curve, though single readings can be large or run the other way;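 note: the enzyme is Sfp with the accession as filed and its product quenches rhodamine fluorescence; potency is the fitted concentration of half-maximal effect; 0% = enzyme reaction without inhibitor and -100% = no enzyme wells; top concentration of the series not given in the record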
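Step 1, compound plus 15 nM Sfp-PPTase, 15 min, room temperature. Step 2, add rhodamine-CoA (5 uM) and BHQ-2-YbbR (12.5 uM). Step 3, read 525/598 nm fluorescence at 0 and 30 min.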
Menin-MLL FL inh – displaces fluorescein MLL peptide from human menin. FP activity change, % at 61.4 µM. 290,000 tested, under 10 active. Fluorescence polarization, fluorescein-MLL peptide displacement from menin; inconclusive = falling polarisation curve, or a change in total fluorescence; inactive = total fluorescence flat and polarisation flat or rising; no compound was filed as active; the % refers to the polarisation; negative = inhibition;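 note: % of control where 0% means no effect; inhibitors lower the polarisation; unlabelled MLL peptide was the positive control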
D2 PAM – positive allosteric modulators of human D2 dopamine receptor | AID 624464 | 360,000 tested, 0.23% active | P14416 | potentiation, % (concentration not given with the values) | DiscoveRx D2 beta-arrestin cells, luminescence, 90 min; 100% = 57 uM dopamine signal; active = potentiation of 50% or more; inconclusive = 30% to 50%; inactive = 30% or less;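 note: compound concentration not given in the record; tested on top of an EC20 dose of dopamine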
Target sequence (P14416 whole entry, looked up): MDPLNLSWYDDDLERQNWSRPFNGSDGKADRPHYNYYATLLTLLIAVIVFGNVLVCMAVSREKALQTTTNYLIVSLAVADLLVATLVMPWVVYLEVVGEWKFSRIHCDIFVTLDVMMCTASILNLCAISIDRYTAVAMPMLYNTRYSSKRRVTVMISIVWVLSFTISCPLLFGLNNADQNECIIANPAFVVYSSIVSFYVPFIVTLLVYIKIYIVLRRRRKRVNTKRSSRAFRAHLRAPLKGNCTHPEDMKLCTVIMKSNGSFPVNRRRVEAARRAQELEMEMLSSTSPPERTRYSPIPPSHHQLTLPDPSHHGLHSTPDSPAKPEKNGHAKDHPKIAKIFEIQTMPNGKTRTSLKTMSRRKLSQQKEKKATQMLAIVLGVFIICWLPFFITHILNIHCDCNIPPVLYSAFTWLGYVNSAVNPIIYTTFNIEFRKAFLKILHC
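D2 cells co-treated with compound plus 50 nM dopamine (EC20) for 90 min at 37 deg C to detect potentiation. Beta-arrestin recruitment was read as enzyme-fragment luminescence after 1 h at ambient temperature. Full response was set by 57 uM dopamine.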
TRPV1 potentiator – enhances activation of the human vanilloid receptor TRPV1 | potentiation, % at 8.33 µM | TRPV1-expressing cells, Fluo-8 calcium influx, capsaicin EC20 potentiation; host cell line not named in the record; control for the full effect not named in the record | 320,000 tested, 0.02% active; active means potentiation above 80%; inconclusive means 30% to 80%; inactive means below 30%; note: 0% is about no effect
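TRPV1-expressing cells were cultured overnight at 35.5C and loaded with Fluo-8 calcium dye for 40 to 90 min at room temperature. After a 10 s baseline, compound was added and calcium influx was read kinetically for 3 min (ex 480/em 520 nm).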
Numbers without * were called inactive; ? = inconclusive; / = no result given; & = joins results of further samples; ! = not confirmed by another sample; [ ] = dose if it differs, or a comment.

No.	mol	Sfp inh	TRPV1 potentiator	D2 PAM	gsp ag	ClpP mod	Menin-MLL FL inh	gsp antag
1	CCCn1c(N)c(N(CCOC)C(=O)c2ccc([N+](=O)[O-])c(C)c2)c(=O)[nH]c1=O	15%	5	0	19%	/	?	5%
2	O=C1CC(c2cccc(Cl)c2)Cc2nc(N3CCN(c4ccccc4)CC3)ncc21 (stereo not given)	1%	1	-20	31%	?	-0.1	4%
3	COc1ccc(C2C(C#N)=C(N)OC3=C2C(=O)CC(C)(C)C3)cc1OC (stereo not given)	-2%	-1	-4	19%	/	3.2	7%
4	CCN1CCN(c2ccc(NC(=O)c3ccc(C#N)cc3F)cc2Cl)CC1	-8%	-10	-29	9%[15.4 µM]	-0.2%	0.5	-7%
5	Cc1nccc2[nH]c(=O)c(C(=O)NC3CCCCC3C)cc12 (stereo not given)	9%	-4	10	-1%	-5.9%	0.3	0%
6	COc1ccc(/C=C/C(=O)NC(=S)Nc2ccc(N3CCN(C(C)=O)CC3)cc2)cc1	2%	-7	-2	5%	1.4%	0.3	-3%
7	O=C(c1cc(Cl)c(=O)n(Cc2ccc(Cl)cc2)c1)N1CCOCC1	5%	/	-11	-43%[inhibitor]	-6.6%	-2.7	4%
8	Cc1c(Br)c([N+](=O)[O-])nn1CC(=O)NCCc1c[nH]c2ccccc12	8%	5	-6	-12%[15.4 µM]	0.6%	-2.8	-8%
9	C=C(C)CNc1cc(S(=O)(=O)N2CCOCC2)ccc1Oc1ccccc1	/	4	-4	-31%[inhibitor]	-6.5%	/	-14%
10	CCn1c(SC)nnc1-c1c[nH]c2ccccc12	-8%	11	-8	-54%[inhibitor]	-3.4%	1.2	5%
11	Cc1nc2cc(C(=O)OCC(=O)N(CC(C)C)C3CCS(=O)(=O)C3)ccc2n1-c1ccccc1 (stereo not given)	21%	12	-9	-7%	-2.9%	1.4	-4%
12	CCOc1cc(C(=S)N2CCOCC2)ccc1OC(=O)/C=C/c1ccc(OC)c(OC)c1	-22%	-4	-7	?	25µM*	2.6	-5%
13	Cc1nn(-c2ccccc2)c(C)c1C(=O)OCC(=O)Nc1ccc(C(N)=O)cc1	/	/	-3	16%	0.9%	/	/
14	CC(C)N(Cc1nc(-c2ccc(Cl)cc2)no1)C(=O)CN(C)S(=O)(=O)c1ccc(Cl)cc1	13%	1	-9	-36%[inhibitor]	0.6%	-6.3	-15%
15	CCN(CC)Cc1cc(Nc2ccnc3cc(Cl)ccc23)ccc1O	7%&7%	-16&-10	-17&0	/	-2.4%&3.4%	-4.7	0%&-4%
16	Cc1ccnc(N2CCN(C(=O)CSc3nc4ccccc4nc3N3CCC(C)CC3)CC2)c1	-14%	9	-25	-2%	-15%	-2.9	-9%
17	O=C(CCNS(=O)(=O)c1ccccc1)NCCSc1ccc(Br)cc1	/	0	-4	19%	-0.1%	/	-14%
18	C[C@@H](C(=O)Nc1ccc2c(c1)OCCO2)n1c(=O)[nH]c2ccccc2c1=O	9%	-7	-2	-4%	-0.3%	6.3	2%
19	CCc1nc2ccccc2c(C(=O)Nc2cc(C)ccc2C)c1C	-5%	-2	-15	-36%[inhibitor]	0.6%	-2.5	-2%
20	Cc1ccc(Nc2nnc(SCC(=O)NC3CCS(=O)(=O)C3)s2)c(C)c1 (stereo not given)	7%	4	-35	9%[15.4 µM]	0.0%	-3.7	-3%
21	O=C(NCc1ccccn1)c1nc(Cn2cc([N+](=O)[O-])cn2)no1	-18%	-2	-3	27%	/	0.1	4%
22	CCN(CC(=O)NCc1ccc(F)cc1)C(=O)c1ccc2c(c1)OCO2	/	-8	-7	21%	-1.0%	/	9%
23	Cc1cccc(C)c1NC(=O)c1cccc2c1-c1ccccc1C2=O	4%	-1	-4	1%	-3.6%	4.9	7%
24	CC(C)N1C(=O)c2ccc(C(=O)O)cc2C1=O	13%	/	-2	-27%	0.6%	7.0	-12%
25	COCCNC(=O)C(c1ccc(Cl)cc1)N(C(=O)CCC(=O)Nc1ccccn1)C1CCCC1 (stereo not given)	13%	-2	-1	1%	-1.9%	-0.1	?
26	O=[N+]([O-])c1cc(CN2CCOCC2)c2cccnc2c1O	12%	-24	4	-3%[15.4 µM]	/	4.4	-20%
27	COC(=O)c1ccccc1NC(=O)/C=C/C(=O)O	-6%	8	-14	17%	-18%	/	7%
28	CCCC(=O)NC1C2CC3CC(C2)CC1C3 (stereo not given)	8%	3	2	29%	-0.1%	1.0	-8%
29	Cc1ccc(C(=O)COC(=O)CN2C(=O)C3CC=CCC3C2=O)cc1C (stereo not given)	/	/	-14	1%	1.9%	/	/
30	Cc1ccc(C2=NN3C(C(=O)c4ccccc4)Oc4ccccc4C3C2)cc1 (stereo not given)	12%	11	-7	2%	0.3%	2.8	4%
31	CC(C)Cc1nc(SCC(=O)Nc2ccc(S(N)(=O)=O)cc2)n[nH]1	14%	13	-14	19%	-3.6%	-1.6	8%
32	CCc1ccc(-c2cc(C)no2)cc1S(=O)(=O)Nc1ccc(C)cn1	-2%	27	-10	41%	32µM*!	/	-16%
33	COC(=O)c1ccc(NC(c2ccc(Cl)cc2)P(=O)(OC)OC)cc1 (stereo not given)	3%	-19	-13	0%	-15%	0.3	8%
34	O=c1[nH]c(N/N=C/c2ccccc2)nc2ccccc12	8%	-8	-9	-3%	?	0.2	8%
35	O=C(/C=C/c1cccs1)Nc1cccnc1	-18%	-16	-17	?	0.5%	3.3	5%
36	O=C(Nc1ccccc1)C1=C(N2CCOCC2)/C(=C/c2cccnc2)CC1	5%	-13	-22	-25%	-11%	2.9	-16%
37	Cc1cc(C(=O)CSc2nc3ccc(Cl)cc3[nH]2)c(C)n1C	-7%	-5	-1	23%	-5.0%	2.8	-19%
38	CC(C)C[C@@H](CNCC(=O)[C@H](CC(C)C)NC(=O)c1[nH]cnc1C(=O)N[C@@H](C)CN)NC(=O)c1nc[nH]c1C(=O)N[C@@H](CC(C)C)C(=O)O	/	/	-5	/	1.0%	/	10%
39	CCCCC1=CC2=CC(=O)C(C)(OC(=O)CC)C(=O)C2=CN1c1ccccc1 (stereo not given)	8%&-26%	?	12	/	-0.3%	?	-3%
40	O=C(c1csc2c1CCCCC2)N1CCN(c2ncccn2)CC1	11%	-15	7	-11%	-3.6%	9.1	1%
41	Cc1cc(NC(=O)CCN2CCCCC2)ccc1Br	11%	-8	-26	18%	1.3%	1.7	16%
42	O=c1c2oc3ccccc3c2ncn1Cc1ccc(F)cc1	11%	-11	-4	-1%	/	-2.0	4%
43	CC(C)(C)OC(=O)NCCCC[C@H](NC(=O)c1nc[nH]c1C(=O)NC1CCN(C(=O)OC(C)(C)C)CC1)C(=O)OC(C)(C)C	18%	-23	2	/	-18%	-0.3	-17%
44	CCC(=O)NC(=S)Nc1ccc(NC(=O)COc2ccc(Cl)c(C)c2)cc1	-7%	0	-7	0%	3.9%	12	-9%
45	CC(C)Oc1cc(C(=O)NC2CCCCC2)c2ccccc2n1	12%	-16	-5	27%	4.0%	/	-5%
46	CCCNC(=O)C(Cc1ccccc1)NS(=O)(=O)c1ccc2c(c1)c(=O)n(C)c(=O)n2C (stereo not given)	23%	15	0	27%	-13%&-16%	3.5	2%
47	NC(=S)Nc1cccc2cccnc12	?	0	-11	8%	2.0%	3.0	4%
48	CS(=O)(=O)Nc1nc2n(n1)C(c1ccccc1)C=C(c1ccc(Br)cc1)N2 (stereo not given)	-4%	8	75*	?	8.9µM*	?	-7%
49	Cc1ccc(NC(=O)CSc2nc3nc(C)cc(C)c3c(=O)[nH]2)cc1	10%	10	18	19%	0.2%	1.8	0%
50	CCN1CCN(c2nc3c(C)cccn3c(=O)c2/C=C(\C#N)C(=O)NCCOC)CC1	15%	26	-5	?	3.6%	-5.4	14%
51	COc1ccc(/C=N/NC(=O)c2cc(C)n(-c3ccccc3)c2C)cc1OC	5%	-7	-10	-11%[15.4 µM]	/	0.9	0%
52	CN1CCN2c3ncccc3Cc3ccccc3[C@@H]2C1	12%	0	-26	/	-7.5%	-1.6	-5%
53	CC(=O)c1ccc(NC(=O)c2noc(C(C)C)c2[N+](=O)[O-])cc1	-16%	-14	0	?	1.2%	1.4	-4%
54	CCOC(=O)C1=C(C)N(CCCC(=O)O)C(=O)NC1c1ccc2ccccc2c1 (stereo not given)	/	/	-12	-5%	0.2%	/	-1%
55	O=C(Cc1cccs1)N1CCN(S(=O)(=O)c2ccc(Cl)c(C(F)(F)F)c2)CC1	/	-4	-2	5%	-4.2%	/	-8%
56	Cc1ccccc1S(=O)(=O)Cc1ccc(C(=O)NCc2cccnc2)o1	0%	4	?	?	-14%	4.4	-6%
57	C=CCn1c(SCC(=O)NCC(c2ccccc2)N(C)C)nc2sc3c(c2c1=O)CCC3 (stereo not given)	/	/	-3	27%	-1.6%	/	-3%
58	CCCN(CC(=O)Nc1ccccc1OC)C(=O)c1cc(-c2cccs2)nn1-c1ccccc1	/	-12	-13	-3%	-4.7%	/	-23%
59	CCn1c(CSc2nncn2-c2ccc(OC)cc2)nc2cc(S(=O)(=O)N(C)C)ccc21	11%	24	2	15%	-3.8%	3.3	-11%
60	COCCNC(=O)COc1ccc(N(C)S(=O)(=O)c2ccc3ccccc3c2)cc1	16%	-7	-8	1%[15.4 µM]	/	0.5	-14%

Given with each value named: three of the compounds above
45: CC(C)Oc1cc(C(=O)NC2CCCCC2)c2ccccc2n1
- Sfp inh = 12%
- TRPV1 potentiator = -16
- D2 PAM = -5
- gsp ag = 27%
- ClpP mod = 4.0%
- Menin-MLL FL inh = /
- gsp antag = -5%

28: CCCC(=O)NC1C2CC3CC(C2)CC1C3 (stereo not given)
- Sfp inh = 8%
- TRPV1 potentiator = 3
- D2 PAM = 2
- gsp ag = 29%
- ClpP mod = -0.1%
- Menin-MLL FL inh = 1.0
- gsp antag = -8%

29: Cc1ccc(C(=O)COC(=O)CN2C(=O)C3CC=CCC3C2=O)cc1C (stereo not given)
- Sfp inh = /
- TRPV1 potentiator = /
- D2 PAM = -14
- gsp ag = 1%
- ClpP mod = 1.9%
- Menin-MLL FL inh = /
- gsp antag = /
